# Screening results from PubChem.
# PINK1 modulator = A Quantitative High throughput Screen to Identify Chemical Modulators of PINK1 Expression | AID 624263, 2012 | Potency, µM (doses to about 76.6 µM), for the others: at the top dose activation (PINK1 increase), most hits filed as activators | 410,000 tested, 0.2% active | PINK1 immunofluorescence, high-content cytometry, 24 h; active = well fitted activation curve with a large enough effect; inconclusive = small, poorly fitted or top-dose-only effect; inactive = flat fitted curve, though single readings scatter; cell line not stated here;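 further: potency means the concentration at half of the fitted maximal effect; % of control where 0% means no effect; nearly all actives have a fitted effect of over 65% in size; a mitochondrial uncoupler was the plate control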
#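 Stable cell line, 250 cells/well, 12 h attachment; compounds pinned at 5 concentrations, 24 h; CCCP control. Fixed with nuclear dye, primary antibodies 12 h at 10 degrees C, secondary plus cell stain; laser-scanning cytometer read.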
# D2 agonist = Beta-Arrestin HTS for Positive Allosteric Modulators of the Human D2 Dopamine Receptor: Agonists; 360,000 tested, 0.084% active; activation, % (concentration not given with the values); DiscoveRx PathHunter D2 beta-arrestin, luminescence, 90 min; 100% = 57 uM dopamine signal; AID 624465, 2012; in the data active = activation above about 40%; inconclusive = about 15% to 40%; inactive = below about 15%; further: compound concentration not given in the record; the text of the record calls up to 30% inactive
# Target sequence (P14416 whole entry, looked up): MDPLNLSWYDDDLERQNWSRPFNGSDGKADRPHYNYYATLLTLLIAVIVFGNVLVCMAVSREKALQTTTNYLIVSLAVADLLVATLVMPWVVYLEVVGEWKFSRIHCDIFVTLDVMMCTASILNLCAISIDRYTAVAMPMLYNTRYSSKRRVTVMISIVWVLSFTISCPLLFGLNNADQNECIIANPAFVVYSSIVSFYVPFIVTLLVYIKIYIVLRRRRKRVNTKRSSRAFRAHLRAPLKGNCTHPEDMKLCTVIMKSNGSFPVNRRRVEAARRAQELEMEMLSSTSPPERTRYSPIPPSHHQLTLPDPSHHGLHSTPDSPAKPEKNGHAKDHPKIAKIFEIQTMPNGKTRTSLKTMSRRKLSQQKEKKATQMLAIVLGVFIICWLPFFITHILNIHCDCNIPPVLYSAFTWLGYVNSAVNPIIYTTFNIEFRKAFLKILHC
#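 Agonist mode: compounds alone added to overnight-plated D2 PathHunter cells for 90 min at 37 C, with 57 uM final dopamine (EC100) defining full response. Beta-arrestin recruitment detected by chemiluminescent reagent, read after 1 h at ambient temperature.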
# gsp antag = qHTS for Antagonists of gsp, the Etiologic Mutation Responsible for Fibrous Dysplasia/McCune-Albright Syndrome: qHTS; gsp-mutant cells, cAMP HTRF, 30 min; control for the full effect not named in the record; Potency, µM (top dose mostly 76.9 µM), without a hit: top-dose activity change, negative = inhibition, usual class: inhibitors; 340,000 tested, 0.4% active; AID 624288, 2012; active = falling curve of any shape with a large fitted effect; inconclusive = falling curve, mostly with a smaller effect; inactive = flat or rising curve; cell line not stated here;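 further: intracellular cAMP measured with PDE inhibitor Ro 20-1724 present during compound exposure; potency means the concentration at half of the fitted maximal effect; on the % scale 0 is the no-effect control and ±100 the full control effect; nearly all actives have a fitted effect of over 65% in size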
#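 HTRF cAMP read-out (cAMP-d2 plus anti-cAMP antibody-K in lysis buffer, 30 min RT). Before lysis, cells are exposed to compounds with […] for 30 min at 37C in DPBS containing Ca/Mg, BSA and Tween 20.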
# Sfp PPTase inh = qHTS Assay for Inhibitors of Bacillus subtilis Sfp phosphopantetheinyl transferase (PPTase); 4'-phosphopantetheinyl transferase ffp (Bacillus subtilis), Q9F4F7; Biochemical Sfp PPTase activity, qHTS; Potency, µM, without a hit: max response, negative = inhibition, usual class: inhibitors; 310,000 tested, 3.5% active; AID 1490, 2009; active means well fitted inhibition curve with a large enough effect; inconclusive means small, poorly fitted or top-dose-only effect, or another doubt; inactive means no such curve, though single readings can be large or run the other way;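 further: the enzyme is Sfp with the accession as filed and its product quenches rhodamine fluorescence; potency means the concentration at half of the fitted maximal effect; 0% = enzyme reaction without inhibitor and -100% = no enzyme wells; top concentration of the series not given in the record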
#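 Reaction rates are the 30-min fluorescence difference (ex 525, em 598 nm) in wells containing 15 nM Sfp, 5 uM rhodamine-CoA and 12.5 uM BHQ-2-YbbR at pH 7.6 with 10 mM MgCl2.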
# ClpP mod = qHTS Assay for Activators of ClpP; 340,000 tested, 1.9% active; purified B. subtilis ClpP, FRET peptide cleavage, 20 min; Potency, µM (highest dose often 57.5 µM), without a hit: at the highest dose activity change, negative = active; ATP-dependent Clp protease proteolytic subunit (Bacillus subtilis (strain 168)), P80244; active = well fitted falling curve with a large enough effect; inconclusive = small, poorly fitted or top-dose-only effect; inactive = no such curve, though single readings can be large or run the other way; further: potency means the concentration at half of the fitted maximal effect; the source files actives as falling curves though it sought activators and does not explain the sign; nearly all actives have a fitted effect of over 65% in size; many hits overshoot -100%
# Target sequence (P80244 whole entry, looked up): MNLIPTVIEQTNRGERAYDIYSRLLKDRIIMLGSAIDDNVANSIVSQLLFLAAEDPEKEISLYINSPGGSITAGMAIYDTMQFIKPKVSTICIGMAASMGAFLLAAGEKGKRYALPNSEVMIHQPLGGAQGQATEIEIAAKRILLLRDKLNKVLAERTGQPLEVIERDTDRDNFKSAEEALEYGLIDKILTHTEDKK
#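 Purified B. subtilis ClpP, 10 microg/mL final in Tris/HCl pH8 with KCl, BSA, glycerol and Tween-20, cleaved an Abz/nitrotyrosine-quenched decapeptide. Fluorescence (ex 320, em 430) was read at 0 and 20 min at room temperature. Delta was normalized to 5.8 microM ADEP and DMSO/no-enzyme controls.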
# Menin MLL FP FL = qHTS Assay for Inhibitors Targeting the Menin-MLL Interaction in MLL Related Leukemias: Competition With Fluorescein Labeled MLL-derived Peptide; Fluorescence polarization, fluorescein-MLL peptide displacement from menin; FP activity change, % at 61.4 µM; 290,000 tested, under 10 active; AID 1766, 2009; inconclusive = falling polarisation curve, or a change in total fluorescence; inactive = total fluorescence flat and polarisation flat or rising; no compound was filed as active; the % refers to the polarisation; negative = inhibition;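 further: % of control where 0% means no effect; inhibitors lower the polarisation; unlabelled MLL peptide was the positive control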
# gsp agonist = qHTS for Agonist of gsp, the Etiologic Mutation Responsible for Fibrous Dysplasia/McCune-Albright Syndrome: qHTS. gsp mutant cells, cAMP HTRF, 30 min; control for the full effect not named in the record. Potency, µM (highest dose often 76.9 µM), for inactives: top-dose activation (cAMP increase), hits mostly activators. 340,000 tested, 0.13% active. AID 624287, 2012; active = well fitted activation curve with a large enough effect; inconclusive = small, poorly fitted or top-dose-only effect, or another doubt; inactive = no such curve, though single readings can be large or run the other way; cell line not stated here;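 further: phosphodiesterase inhibitor Ro 20-1724 added with compounds to block cAMP breakdown; potency means the concentration at half of the fitted maximal effect; nearly all actives have a fitted effect of over 60% in size; about a fifth of the inactives were tested at one dose only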
#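 Cells stably selected in G418 were plated at 2000/well, grown 16-24 hr, then given compounds in DMSO with the PDE inhibitor […] (300 uM solution added) for 30 min at 37C; cAMP was read by HTRF.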
# The depositor's hits bear a star; ? = inconclusive; / = not tested or not shown; & = joins results of further samples; ! = not active in a repeat; [ ] = remark or other dose.
entry	Molecule	PINK1 modulator	D2 agonist	gsp antag	Sfp PPTase inh	ClpP mod	Menin MLL FP FL	gsp agonist
1	CN(CCO)c1cnccn1	2.0%	-4.5	2%	10%	/	-0.3	15%[15.4 µM]
2	CN(C)c1ccc(NC(=O)CN2C(=O)CC(c3ccccc3)=Nc3ccccc32)cc1	7.7%	-0.6	6%	5%	0.4%	5.1	-7%
3	N#CCC(=O)Nc1ccc(C(=O)OCC(=O)Nc2cccc3ccccc23)cc1	-1.1%	-1.2	/	/	-5.8%	/	-33%[inhibitor]
4	CCOC(=O)C(C)/C(C)=N/NC(=O)CCC(=O)Nc1cc(C)ccc1C (centres undefined)	2.1%	3.2	11%	10%	/	-5.2	-1%[15.4 µM]
5	CN(C)C(=O)CSc1nnc(Cc2ccc3c(c2)OCO3)o1	-2.2%	9.6	8%	15%	0.8%	3.9	-3%
6	CCN1/C(=C/C=C/c2oc3ccc4ccccc4c3[n+]2CC)Oc2ccc3ccccc3c21	?	3.3	-1%	8.9µM*	/	?	1%
7	C[C@@H](NC(=O)c1nc[nH]c1C(=O)N[C@@H](CCCCNC(=O)OC(C)(C)C)C(=O)OC(C)(C)C)c1ccccc1	0.6%	-3.7	-15%	16%	0.0%	-0.1	-13%
8	CC1CC(C)CN(CCCNC(=O)c2cc3c(s2)-c2ccccc2OC3)C1 (centres undefined)	-0.8%	0.1	19%	-6%	3.7%	/	2%
9	CC1(c2ccc(F)cc2)OC(=O)c2c1ccc1ccccc21 (centres undefined)	4.7%	-0.9	/	/	?	/	-6%
10	c1ccc(COc2ccc(CNCc3cccs3)cc2)cc1	-3.0%[38.3 µM]	0.2	6%	56µM*	0.9%	1.7	16%
11	CN(CP(=O)(O)CN(C)S(C)(=O)=O)S(C)(=O)=O	-1.9%	-0.5	3%	9%	-1.9%	3.1	12%
12	ClCc1cc2ccccc2nc1Cl	4.2%	-6.5	-11%	1%	-0.1%	-6.1	0%[15.4 µM]
13	O=C(CN1CCSCC1)N/N=C/c1ccc(F)cc1	1.2%[38.3 µM]	-1.6	-3%	?	-0.7%	-0.6	2%
14	CCOC(=O)CC1COCCN1C(=O)CCc1nnc(-c2ccsc2)o1 (centres undefined)	0.5%	-4.5	-10%	4%	/	1.7	2%[15.4 µM]
15	CC1CCN(C(=O)c2cc(S(=O)(=O)N3CCOCC3)ccc2N2CCCC2)CC1	2.6%	-2.6	-6%	/	-3.5%	/	-26%
16	CCCc1cc2c(cc1NC(=O)c1ccccc1F)OCO2	1.8%	-2.7	-12%	5%	0.2%	0.6	-5%[15.4 µM]
17	CCN(Cc1cn2cccnc2n1)C1CCCCC1	-1.8%	2.2	9%	7%	/	-1.3	-1%
18	CCCn1c(N)c(C(=O)CSc2n[nH]c(-c3ccc(C)cc3)n2)c(=O)[nH]c1=O	8.1%	1.5	15%	/	1.9%	/	1%[15.4 µM]
19	CCC1SC2=NC(C)=C(C(=O)OCC(C)C)C(/C=C/c3ccccc3OC)N2C1=O (centres undefined)	2.4%[38.3 µM]	-4.4	-16%	-2%	-2.3%	1.3	6%
20	Cc1noc(NS(=O)(=O)c2ccc(NC(=O)CSc3nnc(-c4ccccc4)n3C3CCCCC3)cc2)c1C	5.4%[38.3 µM]	-1.2	-9%	27%	1.5%	0.4	-4%
21	CCn1c(SCC(=O)O)nnc1-c1ccc(S(=O)(=O)N2CCCC2)cc1	-2.7%	-2.7	7%	9%	/	-6.4	2%
22	COC(=O)c1c(C(=O)OC)c(-c2cccc(F)c2)n2c1CS(=O)C2 (centres undefined)	0.2%	2.6	-1%	11%	/	1.8	20%
23	FC(F)(F)c1cc(-c2ccccc2)nc2ncnn12	/	-0.2	1%	6%	28µM*	1.3	2%
24	O=C(COC(=O)[C@@H]1CCCN1S(=O)(=O)c1ccc(Cl)cc1)NC1CCS(=O)(=O)C1 (some centres undefined)	2.2%	-0.8	-3%	/	/	/	-3%[15.4 µM]
25	COc1ccc(S(=O)(=O)N(C)C[C@H]2Oc3ccc(NC(=O)Cc4ccccc4)cc3C(=O)N([C@H](C)CO)C[C@@H]2C)cc1	0.2%	-3.2	-10%	/	1.7%	/	-32%[inhibitor]
26	COc1ccc(-c2nc(CN3CCCC(C(=O)NC4CCCC4)C3)c(C)o2)cc1 (centres undefined)	-2.1%	-1.0	2%	7%	-7.8%	-0.6	-11%
27	Cc1ccc(S(=O)(=O)N2CCCCC2)cc1NC(=O)COC(=O)c1cc[n+]([O-])cc1	1.2%	-2.5	-2%	3%	1.2%	-0.2	7%
28	Cc1ccc(NC(=O)CCSc2nnc(C)s2)cc1	3.5%	-1.5	6%	8%	0.1%	-0.8	-14%
29	O=C(NNC(=O)c1ccccc1-n1cccc1)c1ccc(F)cc1	-2.0%	1.3	6%	18%	/	-2.0	19%
30	OC(COc1ccc(OCc2ccccc2)cc1)CN1CCCCC1 (centres undefined)	-0.2%[38.3 µM]	-0.2	2%	14%	-0.1%	2.3	-29%
31	COC(=O)C(NC(=O)c1ccccc1C)(Nc1ncc(S(=O)(=O)c2ccc([N+](=O)[O-])cc2)s1)C(F)(F)F (centres undefined)	0.0%	7.3	7%	16%	0.3%	-1.5	-1%
32	CCN(CC)CCCNC(=O)c1cc2c(-c3ccc(Cl)cc3)nn(C)c2s1	-1.0%	-3.3	3%	-23%	4.3%	2.1	?
33	COC(=O)c1ccccc1NC(=S)N(Cc1ccc2c(c1)OCO2)Cc1cc2cccc(C)c2[nH]c1=O	4.9%	-2.3	16%	16%	5.9%	-1.8	28%
34	Cc1cccc(C)c1NC(=O)CCc1nnc2ccc(N3CCCC3)nn12	-1.2%	3.8	-9%	9%	0.4%	/	19%
35	COc1ccc(C(=O)NCc2ccc(N3CCN(C(=O)OC(C)(C)C)CC3)cc2)cc1	2.8%	6.9	-27%	1%	-6.1%	5.1	2%
36	COc1ccc(CCNc2ccc(C(CC(N)=O)NC(=O)c3ccccc3)cc2[N+](=O)[O-])cc1 (centres undefined)	?	-4.5	8%	23%	1.1%	0.4	-4%
37	CCOC(=O)c1c(C)[nH]c(C(=O)CN2C(=O)NC(C)(CC(C)C)C2=O)c1C (centres undefined)	7.2%	-1.9	-4%	10%	/	4.3	-11%[15.4 µM]
38	COc1ccc(-n2c(SCC(=O)NCc3cccs3)nc3[nH]ncc3c2=O)cc1	0.4%	-2.8	-2%	12%	-0.4%	4.3	-16%
39	COc1cccc(C(=O)Nc2nnc(SCC(=O)NC3CCCC3)s2)c1	2.5%	-4.9	-3%	0%	-1.6%	-0.9	13%[15.4 µM]
40	CCOc1ccc(OCCSc2nnnn2C2CCCCC2)cc1	1.2%	-0.9	-16%	-6%	-1.6%	3.2	7%
41	C(=N/Nc1cc(N2CCOCC2)nc(N2CCOCC2)n1)/c1ccccc1	1.7%	1.5	-28%	-16%	/	/	-3%
42	O/N=C/c1cccn1-c1ccc(O)cc1	9.5%[38.3 µM]	-3.7	1%	6%	-2.4%	2.0	?
43	NNc1ccc(S(=O)(=O)N2CCCCC2)cn1	-0.5%	-1.8	5%	?	-4.5%	-1.7	10%
44	COc1ccc2nc(NC(=O)c3ccc(F)cc3)sc2c1	11%	10	0%	20%	/	-0.3	-114%[inhibitor]
45	CC(=O)Nc1ccc2cnn(C(C)=O)c2c1	-0.6%	0.5	/	/	-1.8%	/	?
46	COCCN(C(=S)Nc1ccccc1OC)C(C)c1cccs1 (centres undefined)	0.6%	-1.1	-7%	14%	0.4%	0.0	-31%[inhibitor]
47	O=C(COC(=O)Cc1ccc(Br)cc1)NCc1ccc2c(c1)OCO2	0.6%	-4.5	1%	/	/	/	-16%[15.4 µM]
48	COc1ccc(CNc2ncncc2-c2ccc(C(=O)N(C)C)cc2)c(OC)c1	1.6%	/	/	?	/	-2.8	/
49	CCCCN(CC)CCCNC(=O)c1cn(CC(C)C)c(=O)c2c1c1ccccc1n2C	-2.6%&1.4%	0.3	-6%	-15%	20µM*!	4.9	12%
50	Cc1ccc(O)c(-c2cc(C(=O)Nc3ccc(S(=O)(=O)Nc4nc(C)cc(C)n4)cc3)[nH]n2)c1	1.6%	4.5	-10%	19%	-8.6%	/	8%

# (cont.)
entry	Molecule	PINK1 modulator	D2 agonist	gsp antag	Sfp PPTase inh	ClpP mod	Menin MLL FP FL	gsp agonist
51	O=C(CCNC(=O)c1ccc(Br)o1)NC1CCCC1	3.5%[38.3 µM]	0.1	2%	5%	1.0%	-0.5	?
52	CC(C)(C)/C(COc1ccccc1[N+](=O)[O-])=N/O	0.7%	-3.6	2%	5%	0.9%	1.1	1%
53	COc1cc(/C=N/NS(=O)(=O)c2ccc(C)cc2)ccc1OCc1ccc(C(=O)O)cc1	2.9%	3.6	-9%	5%	/	-2.9	1%
54	CCOC(=O)C1(CC2CCCCO2)CCN(C(=O)Nc2ccccc2)CC1 (centres undefined)	-0.8%	0.2	10%	-1%	/	4.5	4%[15.4 µM]
55	CCc1nc2c(OCC3CCCCC3)cccn2c1N(C)C(=O)c1ccc(OC)cc1	2.1%	-2.6	/	/	-4.3%	/	/
56	CCCn1cc(SCC(N)=O)c2ccccc21	1.7%	-1.6	7%	-10%	-1.4%	2.1	1%
